# Screening data deposited in PubChem by National Center for Advancing Translational Sciences (NCATS).
# miR-21 reporter = raises the signal of a miR-21 reporter | HeLa miR-21 FLuc reporter, luciferase, 48 h | Potency, µM (titrated, usually from 38.3 µM), inactives show top-dose reporter change, positive = more light | 340,000 tested, under 10 active; active = well fitted rising curve with a large enough effect; inconclusive = small, poorly fitted or top-dose-only effect; inactive = no such curve, though single readings can be large or run the other way;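 further: % of control where 0% means no effect; miR-21 action dims this reporter so a rising signal means less miR-21 action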
#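 Using DMEM plus 10% FBS, HeLa miR-21-FLuc cells are incubated with test compounds (final up to about 40uM) for 48 hours; firefly luciferase signal is then imaged following reagent-mediated lysis.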
# GLA inh pH 4.5 = blocks human alpha-galactosidase A at pH 4.5; purified enzyme, 4-MU-alpha-Gal fluorescence, pH 4.5; 230,000 tested, under 10 active; P06280; activity change, negative = inhibition, % at 105 µM; AID 1467; inconclusive = small, poorly fitted or top-dose-only inhibition, or a rising curve; inactive = flat fitted curve, though single readings scatter; no compound was filed as active;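 further: 0% = full activity with enzyme and -100% = basal without enzyme; dose as in the result columns while the protocol names 77 µM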
# Target sequence (P06280 whole entry, looked up): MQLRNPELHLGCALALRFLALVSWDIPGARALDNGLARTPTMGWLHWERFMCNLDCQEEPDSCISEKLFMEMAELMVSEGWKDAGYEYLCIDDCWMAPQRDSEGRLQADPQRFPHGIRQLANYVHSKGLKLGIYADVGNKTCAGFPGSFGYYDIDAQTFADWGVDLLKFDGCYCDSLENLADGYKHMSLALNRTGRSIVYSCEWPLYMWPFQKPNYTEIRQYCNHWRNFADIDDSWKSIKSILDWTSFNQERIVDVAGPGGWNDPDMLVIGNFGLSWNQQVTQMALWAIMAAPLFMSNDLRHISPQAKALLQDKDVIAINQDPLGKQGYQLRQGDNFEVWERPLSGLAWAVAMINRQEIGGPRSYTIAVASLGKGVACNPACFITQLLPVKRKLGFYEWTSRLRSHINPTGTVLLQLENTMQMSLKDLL
# Rango complex inh = Rango-importin beta binding inhibition; Q14974; Rango CFP/YFP FRET sensor + importin beta, 45 min; Potency, µM (top dose mostly 92.2 µM), without a hit: at the top dose inhibition of complex formation; hit rate 0.031% among 340,000; AID 540263; active = rising FRET ratio curve, often small or poorly fitted; inconclusive = mostly compound fluorescence or quenching in the first reads; inactive = flat curves in all reads;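 further: potency means the concentration at half of the fitted maximal effect; 0% = DMSO wells and 100% = buffer wells lacking importin beta; nearly all actives have a fitted effect of over 15% in size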
#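 Inhibition scored from the CFP 486 nm/YFP 530 nm FRET ratio 45 min after adding 0.125 microM importin beta to 50 nM Rango biosensor preincubated 5 min with compound (room temperature, PBS with DTT, Tween-20, BSA). No-importin wells as positive control.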
# Rango dissoc inh = inhibition of RanGTP-driven Rango-importin beta dissociation | Potency, µM (series often up to 46.1 µM), for the others: at the top dose activity change, negative = inhibition | Biochemical FRET Rango-importin beta, RanGTP-induced dissociation | hit rate 0.071% among 340,000 | O95149+P62826; active means falling FRET ratio curve, often poorly fitted, with flat reads before Ran was added; inconclusive means other falling curves, or compound fluorescence or quenching; inactive means flat or rising ratio curve;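 further: potency means the concentration at half of the fitted maximal effect; % of control where 0% means no effect; nearly all actives have a fitted effect of over 45% in size; -100% = wells without RanGTP and RCC1; the record marks most hits as doubtful in a second field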
#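 Quantitative HTS using a FRET biosensor: 0.1 uM Rango, 0.25 uM importin beta, 0.6 uM Ran, 2 mM GTP, 0.2 uM RCC1 final, PBS with DTT, Tween-20 and BSA. Post-read taken 45 min after Ran addition.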
# Starred values were filed as active, the others as inactive; ? = inconclusive; nt = no result given. These rows are one share of the data; the hit share may differ from the screen's.
SMILES,miR-21 reporter,GLA inh pH 4.5,Rango complex inh,Rango dissoc inh
CCc1ccc(Nc2nnc(SCC(=O)N(C)CC(=O)Nc3ccccc3CC)s2)cc1,1%,-19,-1.3%,-13%
CCOC(=O)N1CCC(N(CCCOC)C(=O)Nc2cccc(OC)c2)CC1,-5%,9,-4.8%,-8%
COc1ccc(C(F)(F)F)cc1N/C=C\c1nnnn1-c1ccccc1,-1%,0,-0.6%,6%
CCOC(=O)N1CCN(C(=O)C2CCN(Cc3nc(-c4ccccc4C)oc3C)CC2)CC1,4%,-2,-3.2%,-1%
O=C(CN(C(=O)c1csnn1)c1ccccc1Cl)NC1CCCC1,0%,nt,-5.3%,-5%
Cc1ccnc(NS(=O)(=O)c2ccc(NC(=O)C34CC5CC(C)(CC(C)(C5)C3)C4)cc2)n1,4%,-1,0.3%,26%
O=C(O)Cc1c(-c2ccccc2)c2cc(Br)ccc2[nH]c1=O,6%,4,-0.4%,-1%
CN=c1scc(-c2ccccc2F)n1/N=C/c1ccc(O)c(O)c1O,16%,-9,-4.6%,-8%
Cc1cnc(NC(=O)Cc2ccc(S(=O)(=O)N3CCOCC3)s2)s1,nt,nt,?,?
CCOC(=O)c1cn2nc(Oc3cccc(C(F)(F)F)c3)ccc2n1,-2%,0,-0.3%,0%
Cc1cc(C)cc(NC(=O)CSc2nc3nc(C)cc(C)c3c(=O)[nH]2)c1,nt,nt,-1.1%,-16%
Cc1ccc(C(=O)OCc2ccc3c(c2)OCO3)cc1S(=O)(=O)N1CCCCC1,2%,-1,0.9%,18%
CN1C(C(=O)Nc2ccc(OC(F)(F)F)cc2)=CC(c2ccco2)=NS1(=O)=O,-17%,nt,-2.6%,13%
COc1ccc(N2CCN(C(=O)NC(=O)c3ccccc3)CC2)cc1,-4%,nt,0.7%,4%
CC(NC(=O)OCc1ccccc1)C(=O)NCC(=O)NC(Cc1ccc(OC(C)(C)C)cc1)C(=O)OC(C)(C)C (stereo not given),0%,-19,-2.3%,-22%
O=C(CCN1CCCCC1)NCC1OCCc2ccccc21 (stereo not given),-1%,-8,11%,3%
COc1ccc(OC)c(-n2c(SC)nnc2-c2c[nH]c3ccccc23)c1,-8%,-10,0.2%,1%
COc1ccc(CCn2nnnc2C(C(C)C)N2CCN(c3ncccn3)CC2)cc1OC (stereo not given),-3%,-11,3.7%,1%
COc1ccc(/C=N/NC(=O)c2cc3cc(OC)c(OC)cc3[nH]2)cc1,0%,nt,-0.5%,-11%
Cc1ccc(N(CC(=O)Nc2ccc(F)c(Cl)c2)S(=O)(=O)c2c(C)noc2C)cc1,19%,1,3.1%,-3%
CCOc1ccc(/C=N/OCC(=O)Nc2ccc(OCc3ccccc3)cc2)cc1OC,-12%,-5,?,-25%
Cc1ccc(NC(=O)c2cccc(OC(F)F)c2)c(OC(F)F)c1,-23%,-17,0.3%,2%
CCOC(=O)c1cn(CC)c2ccc(S(=O)(=O)N3CC(C)CC(C)C3)cc2c1=O (stereo not given),-2%,nt,-3.2%,5%
CC(Oc1ccc2c3c(c(=O)oc2c1)CCCC3)C(=O)NCCN1CCOCC1 (stereo not given),-3%,nt,0.1%,7%
O=P(O)(CN1CCCCC1)CN1CCCCC1,?,-5,nt,nt
CCc1ccc(N(CC(=O)N2CCCCCC2)S(C)(=O)=O)cc1,3%,nt,10.0%,3%
Cc1ncc(CO)c(/C=N/NC(=O)c2ccoc2C)c1O,nt,nt,?,?
COc1ccc(C(NC(=O)CC(C)C)NC(=O)CC(C)C)cc1OC,-4%,4,1.6%,-8%
O=C(Nc1ccc(SC(F)F)cc1)c1ccc(F)cc1,-36%,1,-1.0%,1%
CC(=O)Oc1cccc(/C=C2\Sc3ccccc3C2=O)c1,1%,-14,?,?
CCOC(=O)N1CCN(C(=O)CSc2nc(CC)nc3c2c(=O)n(C)c(=O)n3C)CC1,9%,-10,-1.7%,4%
CC(C)N1C(=O)C(O)(C2COC(C)(C)CC2=O)c2ccccc21 (stereo not given),0%,-4,-3.0%,2%
CNc1ncc(C(=O)c2ccc(F)cc2)s1,-52%,0,0.2%,14%
COc1ccc(CCNC(=O)CSc2ncc(C(=O)Nc3ccccc3)c(=O)n2C)cc1,nt,nt,-0.1%,4%
CC(=O)c1ccc(OC(=O)COc2ccccc2)cc1,-1%,nt,-0.2%,-2%
O=C(Cn1nc(-c2ccc(Cl)cc2)ccc1=O)NCC1COCCO1 (stereo not given),-1%,nt,-1.4%,-19%
CCCN(CC(=O)Nc1ccc(Cl)cc1Cl)C(=O)/C=C/c1cc(OC)ccc1OC,-5%,?,-0.9%,2%
O=c1c2c(nc3c(-c4ccccc4)c[nH]n13)CCC2,2%,12,2.8%,-3%
CN(CC(=O)Nc1ccc(S(N)(=O)=O)cc1)Cc1ccccc1F,0%,12,0.0%,4%
O=c1[nH][nH]c(C(F)(F)F)c1C=Nc1cccc(Cl)c1,-6%,-3,-0.7%,4%

# Record cards, from the list above.
# O=c1[nH][nH]c(C(F)(F)F)c1C=Nc1cccc(Cl)c1 is listed as miR-21 reporter: -6%; GLA inh pH 4.5: -3; Rango complex inh: -0.7%; Rango dissoc inh: 4%
# O=c1c2c(nc3c(-c4ccccc4)c[nH]n13)CCC2 is listed as miR-21 reporter: 2%; GLA inh pH 4.5: 12; Rango complex inh: 2.8%; Rango dissoc inh: -3%
# CC(=O)c1ccc(OC(=O)COc2ccccc2)cc1 is listed as miR-21 reporter: -1%; GLA inh pH 4.5: nt; Rango complex inh: -0.2%; Rango dissoc inh: -2%

# Next section:
SMILES,miR-21 reporter,GLA inh pH 4.5,Rango complex inh,Rango dissoc inh
CN(C)c1ccc(/C=N/NC(=O)c2sccc2-n2cccc2)cc1,-46%,-8,?,?
CCCCOC(=O)C(C#N)c1nc2ccccc2nc1N1CCOCC1 (stereo not given),-2%,-13,?,?
Cc1cc(C)c(OCCN(C)Cc2ccccc2)c(Br)c1,-2%,5,-2.6%,-11%
COc1ccc(O)c(/C=N/NS(=O)(=O)c2ccc(C)cc2)c1,-45%,nt,8.8%,24%
O=C(Nc1ccccc1)NC1CCCCCCC1,nt,nt,1.3%,38%
COc1ccc(S(=O)(=O)c2nnn(-c3ccccc3Cl)c2N)cc1,11%,0,-4.0%,-17%
O=C(N/N=C(\c1ccccc1)c1cccnc1)C(O)(c1ccccc1)c1ccccc1,2%,-6,-3.3%,3%
CN(NS(=O)(=O)c1ccc(F)cc1)c1ncc(C(F)(F)F)cc1Cl,-4%,7,0.1%,4%
CC(=O)ON1C(C)(C)CC(OC(=O)c2ccccc2)CC1(C)C,-1%,-1,-2.4%,?
CC(=O)Nc1ccc(C(O)(C(F)(F)F)C(F)(F)F)cc1,-1%,5,0.3%,-6%
Cc1nnc(N2C(=O)C(O)=C(C(=O)c3ccco3)C2c2cccc3ccccc23)s1 (stereo not given),-36%,-3,?,?
COC(=O)CSC1=C(C#N)C(c2ccc(F)cc2)CC(=O)N1 (stereo not given),-11%,-4,-3.0%,2%
O=C(COC(=O)c1cc(=O)[nH]c2ccccc12)NCc1ccccc1Cl,nt,nt,7.4%,-13%
COc1ccc2[nH]cc(CCNS(=O)(=O)c3ccc(C)cc3)c2c1,7%,-5,-1.0%,14%
CCOC(=O)CC(NS(=O)(=O)c1ccc2[nH]c(=O)sc2c1)c1ccc(C)cc1 (stereo not given),4%,nt,-1.1%,8%
CC1(C)NC(=O)N(CCCCOc2ccc3ccccc3c2Cl)C1=O,-37%,-8,0.2%,-4%
Cc1cccc(NC(=O)c2ccc(S(=O)(=O)C(F)F)cc2)c1C,-33%,5,-1.7%,-6%
CCOC(=O)CSc1nc2ccccc2c(=O)n1C1CCCC1,0%,-3,2.7%,2%
O=C1[C@@H]2CSCN2C(=O)CN1Cc1c(F)cccc1Cl,-3%,nt,4.8%,20%
COC(=O)[C@H](C)NC(=O)Nc1ccc(OC(F)(F)F)cc1,-4%,4,0.0%,30%
CCOc1ccc(S(=O)(=O)N(C)CCO)cc1-c1nc2c(C(C)(C)C)nn(C)c2c(=O)[nH]1,-7%,5,4.2%,7%
COc1cccc(NC(=O)CSc2ccc(-c3ccco3)nn2)c1,1%,nt,-0.9%,-8%
COc1ccccc1-c1ccc(SCC(=O)NC2CCCCC2)nn1,0%,nt,-0.2%,-7%
COc1ccc(C(=O)Nc2ccnn2C2CCN(Cc3ccncc3)CC2)cc1,-6%,nt,1.2%,-12%
CN(CC(=O)NCc1ccc(Cl)cc1)S(=O)(=O)c1cccc2nsnc12,-2%,1,-1.0%,8%
CCCCn1c(=O)n(CC(=O)Nc2c(CC)cccc2CC)c(=O)c2c1nc(CO)n2CCC,-6%,3,0.0%,-4%
NS(=O)(=O)c1ccc(CCNC(=O)c2ccc(Cl)c(S(=O)(=O)N3CCCCCC3)c2)cc1,nt,nt,-1.0%,12%
COc1ccc(NC(=S)N/N=C2\CC(C)(C)Oc3ccc(O)cc32)cc1,2%,-3,-5.2%,3%
CC1(C)CC(=O)c2c(O)cc(OCC(=O)NCCc3ccc(S(N)(=O)=O)cc3)cc2O1,-4%,nt,-1.5%,-11%
CCOc1ccc(NC(=O)CN(C)C(=O)C2CC(=O)N(CCc3ccc(OC)c(OC)c3)C2)cc1OCC (stereo not given),nt,nt,0.1%,2%
Cc1cc(C)n(-c2nnc3c4ccccc4n(C)c3n2)n1,-38%,-12,2.4%,2%
Cc1ccc(NC(=O)C2=C(O)c3ccccc3N(C)S2(=O)=O)cc1,-15%,-5,0.3%,1%
C[C@@H]1COC(=O)[C@@H](CC(=O)OC(C)(C)C)C/C=C\C[C@@H](CC(=O)N[C@@H](CO)Cc2ccccc2)C(=O)N1,nt,nt,0.7%,-6%
S=C(NCc1ccccn1)Nc1ccc(Cl)c(Cl)c1,-14%,-9,0.1%,-3%
Cn1c(=O)c2c(ncn2CC(=O)N/N=C/c2ccco2)n(C)c1=O,0%,-2,0.1%,-16%
Cc1ccc(-n2c(O)c(/C=C3/C(c4ccccc4)=Nc4ccccc43)c(=O)[nH]c2=O)cc1,-6%,-13,-6.9%,-21%
CNc1ccc(Br)cc(C(=O)/C=C/c2ccc(OC)cc2OC)c1=O,-21%,-11,?,?
COCCN(C(=O)C1CCN(C(=O)c2ccccc2C)CC1)c1c(N)n(CC(C)C)c(=O)[nH]c1=O,nt,nt,0.0%,2%
CC(=O)NCCC(=O)N1CCc2c([nH]c3ccccc23)C1c1cccc(C)c1 (stereo not given),-6%,2,-3.9%,1%
COc1ccc(C(=O)C(c2ccccc2)N2CCOCC2)cc1 (stereo not given),-3%,-5,-0.5%,1%
COC(=O)c1ccc(-c2ccc(F)cc2)nc1C,-70%,4,0.7%,-4%
CCOC(=O)N1CCN(C(=S)NC(=O)c2cccc(OC)c2)CC1,nt,nt,3.1%,-12%
Nc1ccc(-c2nc3ccc(N)cc3s2)cc1,6%,?,?,?
CCN(CC)C(=O)Nc1cnc2ccccc2c1,-34%,-3,1.6%,0%
C[C@@H](C(=O)OCn1nnc2ccccc2c1=O)N1C(=O)C2CCCCC2C1=O (stereo not given in full),-9%,-5,8.3%,10%
O=C(O)c1cccc2c1C(=O)c1cc([N+](=O)[O-])ccc1-2,nt,nt,0.8%,-11%
O=S(=O)(c1ccc(Cl)cc1)N1CCCC1c1nc2ccccc2s1 (stereo not given),1%,1,-1.8%,5%
Cc1ccc(CNC(=O)Cn2ccc(NC(=O)OCc3ccccc3)nc2=O)o1,nt,nt,-3.8%,0%
Cc1ccc(NC2CCCN(C(=O)c3ccc(F)cc3)C2)cc1C (stereo not given),1%,nt,-4.2%,0%
COc1ccc(NS(=O)(=O)c2cccc(C(=O)N/N=C/c3c(F)c(F)c(F)c(F)c3F)c2)cc1,nt,nt,-1.1%,0%
CCOc1ccccc1NC(=O)C1=C(C)NC(=O)NC1c1cccs1 (stereo not given),-2%,8,4.1%,-13%
C=CCNC(=O)c1ccc(N(Cc2ccccc2)S(C)(=O)=O)cc1,3%,nt,3.6%,2%
O=C(O)CSc1nnc(Cn2cnc3ccccc32)n1CCc1ccccc1,0%,-4,-8.7%,-8%
COc1ccccc1-c1nnc(SCC(=O)c2ccc(C3CCCCC3)cc2)n1Cc1ccco1,7%,0,?,-7%
